# Screening results deposited in PubChem BioAssay by National Center for Advancing Translational Sciences (NCATS).
# TSHR agonist = qHTS Assay for Agonists of the Thyroid Stimulating Hormone Receptor; HEK293-CNG-TSHR cells (CNG channel as cAMP sensor), membrane potential dye, cAMP; Potency, µM (doses to about 57.1 µM), inactives show at the highest dose activation, usual class: activators; 73,000 tested, 0.48% active; AID 926, 2007; active = well fitted activation curve of enough size with the parental cells flat; inconclusive = any curve in the parental cells; inactive = parental cells flat and receptor cells flat or falling; further: potency means the concentration at half of the fitted maximal effect; % of control where 0% means no effect; weak receptor curves with flat parental cells got no call and are not listed
# Target sequence (P16473 whole entry, looked up): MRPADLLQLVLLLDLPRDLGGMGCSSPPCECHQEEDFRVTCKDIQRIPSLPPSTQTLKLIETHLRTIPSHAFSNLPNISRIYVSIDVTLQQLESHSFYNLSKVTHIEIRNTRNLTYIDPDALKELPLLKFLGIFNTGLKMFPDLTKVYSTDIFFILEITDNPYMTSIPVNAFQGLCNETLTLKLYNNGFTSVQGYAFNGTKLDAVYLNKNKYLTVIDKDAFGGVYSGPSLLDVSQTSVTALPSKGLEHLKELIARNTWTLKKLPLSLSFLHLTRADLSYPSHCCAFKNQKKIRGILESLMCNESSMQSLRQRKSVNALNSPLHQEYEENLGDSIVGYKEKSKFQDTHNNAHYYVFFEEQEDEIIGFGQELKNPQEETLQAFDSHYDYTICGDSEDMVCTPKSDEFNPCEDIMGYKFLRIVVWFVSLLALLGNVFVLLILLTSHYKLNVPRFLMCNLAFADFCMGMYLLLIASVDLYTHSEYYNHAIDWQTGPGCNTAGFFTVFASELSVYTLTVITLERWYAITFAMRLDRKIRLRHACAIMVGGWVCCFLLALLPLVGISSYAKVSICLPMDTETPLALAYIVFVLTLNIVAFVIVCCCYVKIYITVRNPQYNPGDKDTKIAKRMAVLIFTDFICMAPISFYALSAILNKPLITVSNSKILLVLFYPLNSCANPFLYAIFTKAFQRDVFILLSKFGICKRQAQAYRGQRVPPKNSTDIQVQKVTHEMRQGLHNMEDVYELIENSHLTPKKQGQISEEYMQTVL
#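 HEK 293 cells stably expressing TSHR and a modified CNG channel, with CNG-only parental cells as counterscreen, were preloaded 60 min at room temperature with membrane potential dye containing 100 uM RO 20-1724. Compound exposure was 30 min, and depolarization was read as fluorescence at 590 nm.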
# Resorufin fluor = qHTS Assay for Spectroscopic Profiling in Resorufin Spectral Region | Compound fluorescence, resorufin region 547/598 nm, buffer; stronger effect = higher value | max dye-equivalent concentration, M | 59,000 tested, 0.04% active; active = above 10 nM dye equivalent; inconclusive = 1 to 10 nM; inactive = 1 nM or less; a few of its hits are not listed in these tables; further: highest value over a series up to 38 µM
#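 Dye-equivalent concentration values derive from comparing each well's 547/598 nm fluorescence against resorufin standards included on every plate. Incubation was 15 min at room temperature in 100 mM Tris, pH 8.0.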
# AID923 = qHTS Assay for Allosteric/Competitive Inhibitors of Caspase-1: Spectroscopic Profiling in AFC Spectral Region; compound fluorescence, AFC spectral region (405/520 nm); almost no hit is shown here; Potency, µM (series often up to 57.5 µM), for inactives: at the highest dose fluorescence increase, actives largely listed as activators; 75,000 tested, 1.1% active; AID 923, 2007; active means well fitted activation curve with a large enough effect; inconclusive means small, poorly fitted or top-dose-only effect;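 further: potency means the concentration at half of the fitted maximal effect; 0% is about no effect; scaled to a free AFC standard on each plate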
#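 Baseline compound fluorescence (AFC region, 405 nm ex/520 nm em) taken from the intercept of kinetic reads with 50 nM caspase-1 and 5 uM Ac-WEHD-AFC; normalized to an on-plate AFC standard curve; compounds titrated up to 57 uM.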
# A488 autofl = qHTS Assay for Spectroscopic Profiling in A488 Spectral Region | compound autofluorescence, A488 spectral region, dye equivalency; stronger effect = higher value | max dye equivalency, M | 59,000 tested, 0.1% active; active = above 10 nM dye equivalent; inconclusive = 1 to 10 nM; inactive = 1 nM or less; about half of its hits are not listed in these tables;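 further: highest value over a series up to 38 µM; compound alone in buffer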
#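 Read-out: relative fluorescence at 480/540 nm, expressed as Alexa 488 dye-equivalent concentration from a six-point A488 standard included per plate. Conditions: 100 mM Tris, pH 8.0; 15 min incubation, room temperature.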
# A647 autofl = qHTS Assay for Spectroscopic Profiling in A647 Spectral Region | Compound fluorescence, A647 channel (570/671 nm), Tris buffer | max dye-equivalent concentration, M | 59,000 tested, under 10 active | AID 592, 2007; active means above 1 µM dye equivalent; inconclusive means 0.1 to 1 µM; inactive means 0.1 µM or less;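 further: values scaled relative to a standard on each plate; highest value over a series up to 38 µM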
#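 Buffer was dispensed, compounds and Alexa 647 standards were pin-transferred, and plates sat 15 min at room temperature. Intensity at 570/671 nm was then converted to dye-equivalent concentration using the plate's A647 standard curve.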
# * = called active by the depositor; i = inactive; u = inconclusive; x = not tested or not shown; & = joins results of further samples; [ ] = dose if it differs, or a comment.
SMILES,TSHR agonist,Resorufin fluor,AID923,A488 autofl,A647 autofl
c1coc(CNc2c3c(nc4ncnn24)CCCC3)c1,18%,i,-1.2%,i,2.8e-08
CCCC(NC(=O)CNC(=O)C(C)(C)C)C(=O)O (configuration not stated),0%,i,-2.2%,i,5.1e-08
COC(=O)Cc1c(C)nc2nc(-c3ccc(OC)cc3)[nH]n2c1=O,-11%,i,0.6%,i,6e-09
CC(C)=CC(=O)OCC(=O)Nc1ccc(F)cc1Cl,15%,i,-0.1%,i,2.1e-08
COCCn1c(C)cc(C(=O)CSc2nnc3ccccn23)c1C,-3%,x,1.1%,x,x
Cc1ccc2c(c1)N(CC(=O)N1CCc3ccccc3C1)C(=O)CO2,u,i,2.8%,i,1e-09
CCCNS(=O)(=O)c1ccc(CCC(=O)N2CCC(C)CC2)cc1,3%,i,-1.7%,i,5.5e-08
COc1ccccc1CNC(=O)C1CCCN1S(=O)(=O)c1cccc2cccnc12 (configuration not stated),6%,x,1.9%,x,x
CC(=O)c1cccc(NS(=O)(=O)c2cccc(C(=O)O)c2)c1,5%,x,0.5%,x,x
O=C(CS(=O)(=O)c1cn(Cc2cccc(F)c2)c2ccccc12)N1CCCCC1,u,i,0.7%,i,1e-09
NC(=O)Cc1c[nH]c2cccc(O)c12,3%,i,0.0%,i,3e-08
COC(=O)C/C=C\[C@@H](C)[C@@H](/C=N\OC[C@@H](C)[C@H](OCc1ccccc1)C(C)C)OC,4%[11.4 µM],x,-2.7%[11.5 µM],x,x
COc1ccc(N(CC(=O)Nc2cccc(SC)c2)S(C)(=O)=O)cc1,11%,x,0.1%,x,x
CCOC(=O)N1CCN(CC(O)COCC2=CCC3CC2C3(C)C)CC1 (configuration not stated),8%,i,0.0%,i,1.5e-09
O=C(O)COc1ccc2occ(C(=O)c3ccccc3)c2c1,-13%,i,-0.4%,i,1.3e-08
Cc1cccc(N2CCN(C(=O)c3cc4c(=O)[nH]c5ccccc5c4n3C)CC2)c1C,9%,i,3.6%,i,4.2e-08
Cc1ccc(-n2nc3c([n+]2[O-])CCc2c-3no[n+]2[O-])cc1,-2%,i,0.1%,i,2e-08
CC1(C)N=C2C(=[N+]1[O-])CCC/C2=N\O,1%,x,-2.2%,x,x
Cc1ccc(CCN2CC(C(=O)NCCN3CCCCCC3)CC2=O)cc1 (configuration not stated),-4%,i,0.6%,i,4.1e-08
Clc1ccc2c(NCCNC3CCCCC3)ccnc2c1,u,i,-5.5%[11.5 µM],i,2.9e-08
O=C(COC(=O)C1=COCCO1)NCCCc1ccccc1,-2%,i,1.1%,i,1e-09
Cc1nc2ccccc2n1CC(=O)NCc1ccccc1,u,i,1.5%,i,2.7e-08
Cc1cnc(CNc2ncncc2-c2c(C)noc2C)cn1,1%,i,2.2%,i,5.5e-09
CCc1cccc(NC(=O)NC2CCCCC2)c1,2%,i,-2.3%,i,1e-09

# Five compounds picked at random from those above, as already listed:
SMILES,TSHR agonist,Resorufin fluor,AID923,A488 autofl,A647 autofl
COc1ccc(N(CC(=O)Nc2cccc(SC)c2)S(C)(=O)=O)cc1,11%,x,0.1%,x,x
CC1(C)N=C2C(=[N+]1[O-])CCC/C2=N\O,1%,x,-2.2%,x,x
O=C(O)COc1ccc2occ(C(=O)c3ccccc3)c2c1,-13%,i,-0.4%,i,1.3e-08
O=C(COC(=O)C1=COCCO1)NCCCc1ccccc1,-2%,i,1.1%,i,1e-09
Cc1ccc(-n2nc3c([n+]2[O-])CCc2c-3no[n+]2[O-])cc1,-2%,i,0.1%,i,2e-08

# Going on with the list.
SMILES,TSHR agonist,Resorufin fluor,AID923,A488 autofl,A647 autofl
O=S(=O)(Cc1ccccc1)N1CCCCCC1,x,i,-0.2%,i,1e-09
COc1ccc(-c2nc(C#N)c(NCc3ccccc3Cl)o2)cc1OC,3%,i,-0.9%,i,1.5e-08
CCN1CC2CCCC3(C1)C(=O)NC1(CCCCC1)N=C23 (configuration not stated),15%[11.4 µM],i,4.5%,i,4.4e-09
CCCSc1nnc(-c2cccc(S(=O)(=O)N(C)C)c2)n1-c1cc(OC)ccc1OC,u,i,0.4%,i,1.7e-08
Nc1nnc(C(=O)c2ccccc2N)s1,-2%,i,-0.2%,i,2.2e-08
COc1cccc(NC(=O)CCN2CCN(c3ccccc3F)CC2)c1,u,x,-0.4%,x,x
CCOC(=O)CCCNC(=O)CCNC(=O)c1ccc(OC)cc1,1%,x,0.1%,x,x
O=c1c(F)cn(C2CCCO2)c(=O)n1Cc1ccccc1F (configuration not stated),-9%,i,0.0%,i,5.5e-09
CCN(CC)S(=O)(=O)c1ccc2c(c1)c(=O)c(C(=O)N1CCOCC1)cn2C,-5%,i,-0.1%,i,4.1e-08
COc1ccc(CN(C(=O)c2ccco2)c2ccc(C)cc2)cc1OC,u,i,0.6%,i,6.7e-08
CCS(=O)(=O)N1CCCC(C(=O)NCCN(C)Cc2ccccc2)C1 (configuration not stated),2%,i,-0.3%,i,1.1e-08
CCC12CN3CC(CC)(CN(C1)C3c1ccccc1Cl)C2O (configuration not stated),7%,i,0.4%,i,1e-08
CCOC(=O)CN(C(=O)CSc1nnc(-c2ccc(OC)c(OC)c2)o1)c1ccc(F)cc1,4%,i,-0.3%,i,1.1e-08
COc1cc2c(cc1OC)C(C(=O)NCC1COc3ccccc3O1)C(c1cccnc1)N(C)C2=O (configuration not stated),-1%[11.4 µM],i,-0.7%,i,3.8e-08
Cc1cc(C)n(Cc2ccccc2F)c(=O)c1C#N,5%,x,-0.9%,x,x
C/C=C/c1ccc(OCCCn2cncn2)c(OC)c1,19%,i,-1.9%,i,6.2e-09
CC1=C(C(=O)OC2CCCC2)C(c2ccc(C)o2)C2=C(CC(c3cccs3)CC2=O)N1 (configuration not stated),30%,x,7.2%,x,x
COC(=O)C1=C(C)NC(C)=C(C(=O)OC)C1C(=O)OCCN1C(=O)c2ccccc2C1=O,1%,i,-1.0%,i,1e-09
Cc1cc(NC(=O)Nc2cccc(C(F)(F)F)c2)no1,-16%,i,-1.2%,i,2.9e-08
CCNC(=O)NC(=O)C(C)Oc1ccc(C(=O)OC)cc1 (configuration not stated),-1%,i,1.7%,i,1e-09
Cc1ccc(S(=O)(=O)N2CCN(C(=O)CSc3nc4ccccc4c(=O)[nH]3)CC2)c(C)c1,22%,i,-0.6%,i,1.5e-08
O=C(O)CSC1=NCCN1,14%,i,1.4%[11.5 µM],i,2e-09&1.3e-08
CC(C)(C)NC(=O)CSc1nnc(Cc2ccc3c(c2)OCO3)n1C1CCCCC1,4%,i,-0.4%,i,1.6e-08
CCC(=O)Nc1cc(-c2nnc(OC)c3ccccc23)ccc1N1CCOCC1,-5%,i,-1.9%,i,3.4e-08
CC(C)(C)OC(=O)N1CC=C2C(C#N)=C(N)C(C#N)(C#N)[C@H](c3cccnc3)[C@H]2C1,x,i,x,i,7.7e-08
CCOc1ccc(C2C(C#N)=C(N)SC(N)=C2C#N)c(OCC)c1,3%,i,1.9%,i,4.5e-08
COCCNC(=O)C(c1ccco1)N(C(=O)Cn1nnc2ccccc21)c1cc(C)ccc1C (configuration not stated),10%,i,-0.2%,i,1.1e-08
COCCOC(=O)C1=C(C)N(Cc2ccccc2)C(=O)NC1c1cccc(OC)c1OC (configuration not stated),17%,i,-3.5%,i,1e-09
COC(=O)c1cc(OC)c(OC)cc1NC(=O)c1c(-c2ccccc2)noc1C,u,i,-2.2%,i,1.1e-08
CN1C(=O)c2ccccc2C(C(=O)O)C1c1cn(C)c2ccccc12 (configuration not stated),2%[11.4 µM],i,0.0%,i,1e-09
CCCOc1ccc(-c2nc(C#N)c(N3CCN(C)CC3)o2)cc1,20%,i,-0.2%,i,1.2e-08
O=S(=O)(NC1CCCC1)c1ccc(S(=O)(=O)N2CCCN(Cc3ccccc3)C2)cc1,23%,i,-0.7%,i,1.7e-08
CCc1c(C)nc(N2CCN(Cc3ccccc3)CC2)[nH]c1=O,x,i,2.3%,i,1e-09
CCC(C)NC(=O)C1(C)CCC(=O)N1CCc1ccc(OC)c(OC)c1 (configuration not stated),-1%,i,0.4%,i,1e-09
O=C1CN(C(=O)CSc2nncn2-c2ccccc2)c2ccccc2N1,2%,i,-0.7%,i,1.5e-09
COC(=O)CSc1nnc(CNC(=O)c2cccs2)n1-c1cccc(C)c1,3%,i,-1.5%,i,2.7e-08

# One compound at a time, as listed above. Order of screens: TSHR agonist, Resorufin fluor, AID923, A488 autofl, A647 autofl
# c1coc(CNc2c3c(nc4ncnn24)CCCC3)c1 reads 18%, i, -1.2%, i, 2.8e-08
# O=c1c(F)cn(C2CCCO2)c(=O)n1Cc1ccccc1F (configuration not stated) reads -9%, i, 0.0%, i, 5.5e-09
# CCc1cccc(NC(=O)NC2CCCCC2)c1 reads 2%, i, -2.3%, i, 1e-09
# COC(=O)c1cc(OC)c(OC)cc1NC(=O)c1c(-c2ccccc2)noc1C reads u, i, -2.2%, i, 1.1e-08

# Following part
SMILES,TSHR agonist,Resorufin fluor,AID923,A488 autofl,A647 autofl
O=C(Oc1ccccc1)c1ccccc1O,7%,x,4.4%,x,x
N#Cc1c(N)c(C(=O)c2ccccc2)n2c1CCCC2,-3%,i,2.5%,i,1.3e-09
COc1cc(C)c(S(=O)(=O)Nc2ccccc2F)cc1C,26%,i,0.6%,i,7.8e-09
CSc1nc(-c2ccco2)nn1C(=O)c1ccc(C)cc1,6%,x,0.4%,x,x
O=C(NCCO)c1cc2ccccc2c(=O)s1,4%[11.4 µM],i,0.8%,i,1.6e-08
CCOc1ccc(C(=O)NCCN(C)C)cc1,-2%,i,-1.0%,i,8.7e-09
Nc1nc(N)nc(CCCCc2nc(N)nc(N)n2)n1,-4%[11.4 µM],i,x,i,1e-09
CC(C)OC(=O)CN1C(=O)c2ccccc2C1=O,-5%,x,3.4%,x,x
CCOC(=O)CSc1nc2ccccc2c(=O)n1C,x,i,x,i,1e-09
O=C(CN1CCN(C(=O)c2ccccc2)CC1)Nc1ncc(Br)cc1Br,-5%,i,0.8%,i,2.4e-09
O=C(O)c1cc(S(=O)(=O)Nc2ccc(O)cc2)ccc1Cl,8%,x,0.0%,x,x
CN(C)c1ccc(C(C(=O)NC(C)(C)C)N(C(=O)c2csnn2)C2CC2)cc1 (configuration not stated),u,i,-3.1%,i,1e-09
COc1ccc(OC)c(NC(=O)C2CC(=O)n3ncnc3N2)c1 (configuration not stated),4%,i,1.1%,i,4.6e-08
CC#C[C@@]1(O)CC[C@@H]2[C@@H]3CCC4=CC(=O)CCC4=C3[C@@H](c3ccc(N(C)C)cc3)C[C@]21C,-18%,i,x,i,3e-09
O=C(O)c1ccc(COc2cccc(CO)c2)cc1,x,i,2.0%,i,4.8e-09
O=C(Oc1ccccc1)N1CCC[C@@]2(CCN(c3ccccn3)C2)C1,u,i,0.6%,i,5.1e-09
CCOC(=O)N1CCC(N(CCOC)C(=O)Nc2ccc(Cl)cc2)CC1,3%,i,-0.3%,i,1e-08
O=C(CCn1cnc2ccccc2c1=O)Nc1nc2c(s1)CCCC2,19%,i,-0.9%,i,1e-09
O=C(COC(=O)c1ccccn1)Nc1cc(Cl)ccc1Cl,1%,i,-0.4%,i,2.6e-09
CC(=O)N1C(=O)N(C)C2C1N(C(C)=O)C(=O)N2C (configuration not stated),-2%,i,0.3%,i,3.1e-08
CN(C)/C=C/C(=O)c1nnn(C2CCCCC2)c1NC1CCCCC1,u,x,0.8%,x,x
CCN(CC)S(=O)(=O)c1cccc(C(=O)Nc2nncs2)c1,9%,i,-2.4%,i,6e-09
CCCCCCSC1=C(C#N)C(c2ccc(C)o2)CC(=O)N1 (configuration not stated),9%,i,0.9%,i,2.5e-08

# This is a subset; the hit share may differ from the screen's.
